Assay outcomes as filed in PubChem.
NS1 inh = influenza NS1 inhibition; 0.4% of 270,000 active; Potency, µM (doses to about 46.1 µM), inactives show at the highest dose activity, positive = more growth; S. cerevisiae slowed by influenza A NS1, growth recovery by OD600; AID 2326; active means well fitted rising curve with a large enough effect; inconclusive means small, poorly fitted or top-dose-only effect; inactive means no such curve, though single readings can be large or run the other way; further: nearly all actives have a fitted effect of over 50% in size
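A cell-based growth assay was used: compounds that relieve NS1-induced slow growth of budding yeast raise OD600. Assay medium was yeast nitrogen base with ammonium sulphate and -URA supplement, pH 6.0, with 2% galactose.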
Cruzain inh Det = inhibitors of Trypanosoma cruzi cruzain with detergent | P25779 | purified cruzain, Z-FR-AMC fluorescence, 0.01% Triton | Potency, µM, inactives show max response, negative = inhibition, actives largely listed as inhibitors | 0.43% of 200,000 active | AID 1478;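 further: plate controls were neutral wells for no effect and buffer without enzyme for full effect; nearly all actives have a fitted effect of over 40% in size; top concentration of the series not given in the record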
Target sequence (P25779 123-467 limits assumed): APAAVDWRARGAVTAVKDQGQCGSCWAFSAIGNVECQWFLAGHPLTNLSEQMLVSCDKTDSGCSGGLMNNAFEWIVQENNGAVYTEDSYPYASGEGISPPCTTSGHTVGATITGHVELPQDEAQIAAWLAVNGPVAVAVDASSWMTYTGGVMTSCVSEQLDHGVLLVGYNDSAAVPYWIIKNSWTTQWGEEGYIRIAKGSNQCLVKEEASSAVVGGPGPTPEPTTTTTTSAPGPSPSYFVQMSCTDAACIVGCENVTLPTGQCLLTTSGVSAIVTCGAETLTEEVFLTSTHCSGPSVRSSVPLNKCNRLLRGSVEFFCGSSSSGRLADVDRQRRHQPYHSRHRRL
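Enzyme 1.5 nM, Z-FR-AMC 2 uM, NaOAc 100 mM pH 5.5, DTT 5 mM, Triton X-100 0.01%; 15 min RT compound preincubation; kinetic ex360/em450, 60 s delta.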
MARV entry inh = inhibitors of Marburg virus binding or cell entry | Marburg virus pseudotyped entry inhibition, cell reporter; control for the full effect not named in the record; about a third of the inactives were read at about 46 µM | 1.8% of 300,000 active | Potency, µM (titrated, usually from 37.8 µM), for the others: at the top dose activity change, negative = inhibition, most hits filed as inhibitors; active = well fitted inhibition curve with a large enough effect; inconclusive = small, poorly fitted or top-dose-only effect, or effect the other way; inactive = flat fitted curve, though single readings scatter; tested in HEK293 cells; about a fifth of its hits are not listed in these tables; further: on the % scale 0 is the no-effect control and ±100 the full control effect; luciferase read-out
2A StopGo = FMDV 2A StopGo reporter, luciferase signal; human cells with a luciferase reporter of 2A StopGo recoding; control for the full effect not named in the record; 1.2% of 410,000 active; Potency, µM (series often up to 57.9 µM), for inactives: at the highest dose signal change, negative = less light; active = well fitted falling curve with a large enough effect; inconclusive = small, poorly fitted or top-dose-only effect; inactive = no such curve, though single readings can be large or run the other way; tested in HEK293T cells; further: on the % scale 0 is the no-effect control and ±100 the full control effect; nearly all actives have a fitted effect of over 45% in size; luciferase light after 4 h
LASV entry inh = inhibitors of Lassa virus binding or cell entry | Lassa virus pseudotype entry inhibition, cell reporter; control for the full effect not named in the record | Potency, µM (doses to about 37.9 µM), without a hit: at the highest dose activity change, negative = inhibition, hits mostly inhibitors | 1.2% of 300,000 active | AID 540256; active means well fitted inhibition curve with a large enough effect; inconclusive means small, poorly fitted or top-dose-only effect, or effect the other way; inactive means flat fitted curve, though single readings scatter; tested in HEK293 cells; further: on the % scale 0 is the no-effect control and ±100 the full control effect; nearly all actives have a fitted effect of over 50% in size; luciferase read-out
RE007 growth inh = less growth of the S. pombe RE007 Vpr strain. S. pombe RE007 Vpr strain, BacTiter-Glo ATP luminescence, 24 h; control for the full effect not named in the record. Potency, µM (titrated, usually from 92.2 µM), without a hit: top-dose activity change, negative = less growth. 0.21% of 360,000 active; active = well fitted falling curve with a large enough effect; inconclusive = small, poorly fitted or top-dose-only effect; inactive = no such curve, though single readings can be large or run the other way;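 further: on the % scale 0 is the no-effect control and ±100 the full control effect; nearly all actives have a fitted effect of over 50% in size; the assay follows cell death caused by Vpr and the record does not say whether a fall means rescue or toxicity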
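Fission yeast strain RE007, carrying one chromosomally integrated HIV-1 vpr copy, was seeded at OD 0.01 in PMG+AL medium with 23 nL pinned compound. After 24 h at 30 °C and 99% humidity, viability was read by BacTiter-Glo luminescence.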
Cruzain noTriton = inhibitors of Trypanosoma cruzi cruzain without detergent. purified cruzain, Z-FR-AMC fluorescence, no detergent. AID 1476. P25779. 2.3% of 200,000 active. Potency, µM, without a hit: max response, negative = inhibition, hits mostly inhibitors;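 further: plate controls were enzyme without inhibitor for no effect and buffer without enzyme for full effect; nearly all actives have a fitted effect of over 40% in size; top concentration of the series not given in the record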
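Detergent-free condition (0.00005% Triton X-100) in acetate buffer pH 5.5 with DTT. 1.5 nM enzyme and compound were pre-mixed 15 min, then 2 uM Z-FR-AMC substrate added; reaction progress from fluorescence change between first and third reads (60 s).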
SARS PLpro yeast = SARS-CoV PLP inhibition in yeast; S. cerevisiae expressing SARS-CoV PLpro, growth rescue; control for the full effect not named in the record; Potency, µM (highest dose often 32.9 µM), for the others: at the top dose activity, positive = growth rescue; 0.19% of 330,000 active; AID 485353; active means well fitted rising curve with a large enough effect; inconclusive means small, poorly fitted or top-dose-only effect; inactive means no such curve, though single readings can be large or run the other way; further: 0% is about no effect; nearly all actives have a fitted effect of over 55% in size; growth read by luminescence after 48 h
* marks the source's active call; other numbers are inactive results; [ ] = remark or other dose. Unless noted, the call rests on the fitted dose curve; in most records, active means well fitted curve in the direction sought with a large enough effect; inconclusive means small, poorly fitted or top-dose-only effect, or another doubt; inactive means no such curve, though single readings can be large; an effect the other way counts as inactive or inconclusive. Potency means the concentration at half of the fitted maximal effect.

`CS(=O)(=O)N(CCc1ccccc1)CC(=O)N1CCN(c2ccc(F)cc2)CC1` gave NS1 inh -2.0%, Cruzain inh Det 1.2%, MARV entry inh -26.4%, 2A StopGo inconclusive, LASV entry inh -22.2%, RE007 growth inh -8.4%, Cruzain noTriton inconclusive and SARS PLpro yeast -21.9%.
For COc1ccc(CC(=O)NNC2=Nc3cccc4cccc2c34)cc1 the results were NS1 inh 0.7%, MARV entry inh inconclusive, 2A StopGo 10.6%, LASV entry inh -3.4%, RE007 growth inh 10.5% and SARS PLpro yeast 7.9%.
`Cc1ccc(S(=O)(=O)N(C)C)cc1NC(=O)COC(=O)/C(=C/c1ccc(F)cc1)c1cccs1` gave NS1 inh inconclusive, Cruzain inh Det -4.6%, MARV entry inh inconclusive, 2A StopGo inconclusive, LASV entry inh inconclusive, RE007 growth inh 3.7%, Cruzain noTriton 9.3% and SARS PLpro yeast -1.9%.
Screening COc1ccccc1NC(=O)c1nn(C)c2c1CS(=O)(=O)c1ccccc1-2 returned Cruzain inh Det -3.7%, 2A StopGo -14.4%, LASV entry inh -10.9%[46.1 µM] and Cruzain noTriton 9.4%.
CS(=O)(=O)c1cnc2c(-c3ccc(F)cc3)cnn2c1N was read as NS1 inh 5.7%, Cruzain inh Det 2.7%, MARV entry inh 4.5%, 2A StopGo 49.7%, LASV entry inh 5.9%, RE007 growth inh -0.3%, Cruzain noTriton -5.5% and SARS PLpro yeast 1.3%.
`CCN(Cc1nc(-c2ccc(OC)c(OC)c2)no1)S(=O)(=O)c1ccc(OC)cc1` gave Cruzain inh Det -6.5%, MARV entry inh -24.3%[46.1 µM], 2A StopGo inconclusive, LASV entry inh 0.0%[46.1 µM] and Cruzain noTriton inconclusive.
Screening CCN1CCN(CCC(=O)Nc2ccccc2)CC1 returned NS1 inh 20.5%, MARV entry inh inconclusive, 2A StopGo 2.3%, LASV entry inh inconclusive, RE007 growth inh 19.7% and SARS PLpro yeast 7.6%.
`CCOC(=O)c1ccccc1NC(=O)C1CCCO1` (stereo not given) gave NS1 inh 10.1%, 2A StopGo -3.6%, RE007 growth inh -9.7% and SARS PLpro yeast 4.6%.
Screening CCOC(=O)c1c(Nc2ccc(F)cc2)nnc(-c2ccccc2)c1-c1ccccc1 returned Cruzain inh Det -7.8%, MARV entry inh inconclusive, 2A StopGo inconclusive, LASV entry inh inconclusive and Cruzain noTriton -8.6%.
O=C(COC(=O)c1ccccc1SCC(=O)N1CCCC1)Nc1ccc(OC(F)F)cc1 was read as MARV entry inh 1.0%, 2A StopGo 21.5%, LASV entry inh inconclusive, RE007 growth inh -10.3% and SARS PLpro yeast 2.2%.
CCOC(=O)C1(Cc2cccc(F)c2)CCN(C2CCOCC2)CC1 was read as NS1 inh -1.3%, MARV entry inh -14.4%[46.1 µM], 2A StopGo -0.3%, LASV entry inh 1.1%, RE007 growth inh 5.2% and SARS PLpro yeast 0.2%.
Cc1ccc(-c2ccc(=O)n(Cc3cc(C)ccc3C)n2)cc1 was read as NS1 inh -2.6%, Cruzain inh Det -11.5%, MARV entry inh inconclusive, 2A StopGo inconclusive, LASV entry inh inconclusive, RE007 growth inh 1.8%, Cruzain noTriton inconclusive and SARS PLpro yeast -1.0%.
For CCN(C(=O)c1c(-c2ccccc2Cl)noc1C)C1CCCCC1 the results were NS1 inh -5.8%, MARV entry inh inconclusive, 2A StopGo -17.1%, RE007 growth inh 5.4% and SARS PLpro yeast -1.5%.
Screening CCCCC(=O)Nc1ccc(C(=O)Nc2ccc(S(=O)(=O)Nc3ccc(C)cc3)cc2)cc1 returned NS1 inh 16.9%, Cruzain inh Det 0.0%, MARV entry inh inconclusive, 2A StopGo -22.6%, LASV entry inh inconclusive, RE007 growth inh -7.7%, Cruzain noTriton inconclusive and SARS PLpro yeast 2.1%.
For Cc1ccccc1NC(=O)CSc1n[nH]c(-c2ccco2)n1 the results were NS1 inh 0.3%, MARV entry inh -2.3%, 2A StopGo 7.2%, LASV entry inh 25.3%, RE007 growth inh 2.8% and SARS PLpro yeast 13.0%.
`Cc1ccc(NC(=O)CN2C(=O)S/C(=C\c3ccccn3)C2=O)cc1C` gave NS1 inh 7.1%, 2A StopGo 8.8%, RE007 growth inh 10.9% and SARS PLpro yeast 5.6%.
For O=C(Nc1cccc(F)c1)c1cnc2sc(N3CCCC3)nn2c1=O the results were Cruzain inh Det -1.0%, 2A StopGo inconclusive, LASV entry inh 6.2%[46.1 µM] and Cruzain noTriton 15.6%.
Screening CCS(=O)(=O)N1CCc2cc(C(=O)Nc3ccc(OC)c(Cl)c3)ccc21 returned Cruzain inh Det -7.7%, MARV entry inh inconclusive, 2A StopGo -15.9%, LASV entry inh 0.2%[46.1 µM] and Cruzain noTriton 22.8%.
For O=C(O)c1ccccc1NCc1ccsc1 the results were NS1 inh -63.9%, MARV entry inh -16.3%[46.1 µM], 2A StopGo -8.3%, LASV entry inh 12.3%[46.1 µM], RE007 growth inh -18.3% and SARS PLpro yeast 10.6%.
`COc1cccc(-c2nnc(NC(=O)c3ccc(S(=O)(=O)N4CC(C)OC(C)C4)cc3)o2)c1` (stereo not given) gave NS1 inh -13.3%, Cruzain inh Det -2.4%, MARV entry inh inconclusive, 2A StopGo -11.4%, LASV entry inh inconclusive, RE007 growth inh -6.4%, Cruzain noTriton inconclusive and SARS PLpro yeast 3.5%.
Screening CN(Cc1ccco1)C(=O)C1CCC(=O)N1Cc1ccc(F)cc1 (stereo not given) returned NS1 inh inconclusive, Cruzain inh Det 2.5%, MARV entry inh -1.5%, 2A StopGo -14.5%, LASV entry inh -3.2%, RE007 growth inh 13.7%, Cruzain noTriton 2.4% and SARS PLpro yeast 8.7%.
`O=C(NC1CC1)C1CCN(c2ncccn2)CC1` gave NS1 inh 3.7%, MARV entry inh -5.2%[46.1 µM], 2A StopGo -8.1%, LASV entry inh -13.1%[46.1 µM], RE007 growth inh 4.0% and SARS PLpro yeast 1.3%.
CCN(CC)CCNC(=O)C(=O)Nc1c2c(nn1-c1ccc(F)cc1)CSC2 was read as Cruzain inh Det -7.5%, 2A StopGo -5.8%, LASV entry inh 13.3%[46.1 µM] and Cruzain noTriton 2.7%.
CC1CC(C)CN(C(=O)C(Cc2ccccc2)NC(=O)c2ccccc2)C1 (stereo not given) was read as MARV entry inh -19.7%, 2A StopGo -0.1%, LASV entry inh inconclusive, RE007 growth inh 0.4% and SARS PLpro yeast 0.5%.
Screening CCOC(=O)C[N+](C)(C)CCOC1CC2CCC1(C)C2(C)C (stereo not given) returned NS1 inh -0.3%, 2A StopGo 0.0%, RE007 growth inh -6.2% and SARS PLpro yeast 0.0%.
Screening COc1ccccc1/C=C/C(=O)NCC(=O)N=Nc1c(O)[nH]c2ccccc12 returned NS1 inh -5.0%, 2A StopGo -21.7%, RE007 growth inh -4.1% and SARS PLpro yeast 4.2%.
CCOC(=O)c1cc(C#N)c(SCC(=O)OC)[nH]c1=O was read as NS1 inh 2.1%, MARV entry inh 4.8%[46.1 µM], 2A StopGo inconclusive, LASV entry inh 15.6%[46.1 µM], RE007 growth inh 1.7% and SARS PLpro yeast -1.0%.
CC(=C/c1ccc(C(C)C)cc1)/C=N/NC(=O)CSc1ccccn1 was read as NS1 inh -19.7%, Cruzain inh Det -12.2%, MARV entry inh 26.8%, 2A StopGo 21.0%, LASV entry inh -18.6%, RE007 growth inh 30.3%, Cruzain noTriton -3.1% and SARS PLpro yeast -38.7%.
For Cn1cnnc1SC1CCCCC1NS(=O)(=O)c1ccccc1 (stereo not given) the results were NS1 inh 1.6%, Cruzain inh Det 0.8%, MARV entry inh 29.1%, 2A StopGo -2.6%, LASV entry inh 12.7%, RE007 growth inh 0.5%, Cruzain noTriton -0.1% and SARS PLpro yeast 1.8%.
COc1ccc(-n2c(SCC(=O)C(C)(C)C)nc3c(sc(=S)n3-c3ccccc3)c2=O)c(OC)c1 was read as NS1 inh inconclusive, MARV entry inh -21.9%, 2A StopGo -5.8%, LASV entry inh 9.1%, RE007 growth inh -8.6% and SARS PLpro yeast 1.2%.
`CCCCC(=O)Nc1nnc(S(=O)(=O)N(CC)c2cc(C)cc(C)c2)s1` gave Cruzain inh Det -6.5%, 2A StopGo -2.0%, LASV entry inh -25.1%[46.1 µM] and Cruzain noTriton -3.9%.
For COC(=O)c1nc2ccccc2s1 the results were NS1 inh 8.3%, Cruzain inh Det -1.6%, MARV entry inh 3.4%, 2A StopGo 5.4%, LASV entry inh -4.4%, RE007 growth inh 9.1%, Cruzain noTriton -9.6% and SARS PLpro yeast -5.5%.
For CCCc1cc2c(=O)c(-c3ccc4c(c3)OCCO4)coc2cc1OS(C)(=O)=O the results were NS1 inh 12.7%, Cruzain inh Det -4.5%, MARV entry inh inconclusive, 2A StopGo -5.0%, LASV entry inh inconclusive, RE007 growth inh 20.3%, Cruzain noTriton -1.5% and SARS PLpro yeast -16.9%.
For Cc1csc(NC(=O)CN2C(=O)COc3ccc(Cl)cc32)n1 the results were MARV entry inh inconclusive, 2A StopGo -14.0%, LASV entry inh inconclusive, RE007 growth inh -3.4% and SARS PLpro yeast 14.0%.
`CCOc1cc(C(=O)Nc2cc(C)on2)cc(OCC)c1OCC` gave NS1 inh -12.9%, Cruzain inh Det 1.5%, MARV entry inh -14.4%, 2A StopGo -9.4%, LASV entry inh inconclusive, RE007 growth inh -18.4%, Cruzain noTriton 10.7% and SARS PLpro yeast -0.1%.
O=C(CCNC(=O)c1ccccc1Cl)Nc1cc(S(=O)(=O)N2CCOCC2)ccc1N1CCCC1 was read as NS1 inh 4.4%, MARV entry inh -1.5%, 2A StopGo 37.5%, LASV entry inh 3.4%, RE007 growth inh -14.9% and SARS PLpro yeast -6.6%.
Screening Cn1c(=O)c2c(nc(CN3CCN(c4ccccc4)CC3)n2CCc2ccccc2)n(C)c1=O returned MARV entry inh inconclusive, 2A StopGo inconclusive, LASV entry inh inconclusive and RE007 growth inh 10.4%.
